Screening data from PubChem.
PINK1 expr mod: A Quantitative High throughput Screen to Identify Chemical Modulators of PINK1 Expression; Potency, µM (titrated, usually from 76.6 µM), inactives show at the highest dose activation (PINK1 increase), most hits filed as activators; PINK1 immunofluorescence, high-content cytometry, 24 h; 0.2% of 410,000 active; active = well fitted activation curve with a large enough effect; inconclusive = small, poorly fitted or top-dose-only effect; inactive = flat fitted curve, though single readings scatter; cell line not stated here;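 further: potency means the concentration at half of the fitted maximal effect; % of control where 0% means no effect; nearly all actives have a fitted effect of over 65% in size; a mitochondrial uncoupler was the plate control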
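Stable cell line, 250 cells/well, 12 h attachment; compounds pinned at 5 concentrations, 24 h; CCCP control. Fixed with nuclear dye, primary antibodies 12 h at 10 degrees C, secondary plus cell stain; laser-scanning cytometer read.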
D2 potentiator: Beta-Arrestin HTS for Positive Allosteric Modulators of the Human D2 Dopamine Receptor: Potentiators; D(2) dopamine receptor (Homo sapiens), P14416; DiscoveRx D2 beta-arrestin cells, luminescence, 90 min; 100% = 57 uM dopamine signal; potentiation, % (concentration not given with the values); 0.23% of 360,000 active; active = potentiation of 50% or more; inconclusive = 30% to 50%; inactive = 30% or less;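 further: compound concentration not given in the record; tested on top of an EC20 dose of dopamine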
Target sequence (P14416 whole entry, looked up): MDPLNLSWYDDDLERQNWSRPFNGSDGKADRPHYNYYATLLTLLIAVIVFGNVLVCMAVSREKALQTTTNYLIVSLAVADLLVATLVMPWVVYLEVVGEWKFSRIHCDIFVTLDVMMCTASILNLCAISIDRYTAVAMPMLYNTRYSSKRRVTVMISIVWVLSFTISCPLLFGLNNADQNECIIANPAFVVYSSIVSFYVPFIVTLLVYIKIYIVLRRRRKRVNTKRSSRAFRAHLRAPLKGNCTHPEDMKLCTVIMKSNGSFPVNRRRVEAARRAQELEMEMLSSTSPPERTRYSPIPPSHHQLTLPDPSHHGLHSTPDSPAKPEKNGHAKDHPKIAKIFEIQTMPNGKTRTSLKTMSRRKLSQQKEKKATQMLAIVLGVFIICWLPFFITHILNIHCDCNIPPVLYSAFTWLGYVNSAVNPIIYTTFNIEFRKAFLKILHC
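PathHunter D2 cells, attached overnight at 37 deg C, received compound in DMSO plus dopamine at EC20 (50 nM final) for 90 min at 37 deg C. Beta-arrestin recruitment was read as luminescence after 1 h with detection reagent at ambient temperature.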
D2 ag: Beta-Arrestin HTS for Positive Allosteric Modulators of the Human D2 Dopamine Receptor: Agonists | D(2) dopamine receptor (Homo sapiens), P14416 | DiscoveRx PathHunter D2 beta-arrestin, luminescence, 90 min; 100% = 57 uM dopamine signal | activation, % (no concentration beside the values) | 0.084% of 360,000 active | AID 624465, 2012; in the data active = activation above about 40%; inconclusive = about 15% to 40%; inactive = below about 15%; further: compound concentration not given in the record; the text of the record calls up to 30% inactive
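Agonist mode: compounds alone added to overnight-plated D2 PathHunter cells for 90 min at 37 C, with 57 uM final dopamine (EC100) defining full response. Beta-arrestin recruitment detected by chemiluminescent reagent, read after 1 h at ambient temperature.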
Six1-Eya2 blk: qHTS Assay for Inhibitors of the Six1/Eya2 Interaction. Homeobox protein SIX1 (Homo sapiens) + Protein phosphatase EYA2 (Homo sapiens), …. AlphaScreen GST-Six1/His-Eya2 binding, biochemical; stronger effect = lower value; control for the full effect not named in the record. activity change, % (no concentration beside the values). 0.56% of 360,000 active. AID 651725, 2012; in the data active = activity change below about -65%; inconclusive = about -30% to -65%; inactive = above about -30%; further: on the % scale 0 is the no-effect control and ±100 the full control effect; compound concentration not given in the record
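GST-Six1 + His-Eya2 (5X stock: 250/500 nM); Tris pH 8.0, 300 mM NaCl, 0.05% BSA, 0.02% Tween 20; GSH donor/Ni acceptor beads; 1 h 37 °C dark; AlphaScreen readout.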
TRPML1 agonist: qHTS for Agonists of the Human Mucolipin Transient Receptor Potential 1 (TRPML1) | TRPML1-expressing cells, Ca2+ dye fluorescence, FDSS; host cell line not named in the record; reference of the full effect not given here | activation, % (concentration not given with the values) | 0.12% of 410,000 active; in the data active = activation above about 50%; inconclusive = about 30% to 50%; inactive = below about 30%; further: 0% is about no effect; the text of the record puts the active cut at 80%
Target sequence (Q9GZU1 whole entry, looked up): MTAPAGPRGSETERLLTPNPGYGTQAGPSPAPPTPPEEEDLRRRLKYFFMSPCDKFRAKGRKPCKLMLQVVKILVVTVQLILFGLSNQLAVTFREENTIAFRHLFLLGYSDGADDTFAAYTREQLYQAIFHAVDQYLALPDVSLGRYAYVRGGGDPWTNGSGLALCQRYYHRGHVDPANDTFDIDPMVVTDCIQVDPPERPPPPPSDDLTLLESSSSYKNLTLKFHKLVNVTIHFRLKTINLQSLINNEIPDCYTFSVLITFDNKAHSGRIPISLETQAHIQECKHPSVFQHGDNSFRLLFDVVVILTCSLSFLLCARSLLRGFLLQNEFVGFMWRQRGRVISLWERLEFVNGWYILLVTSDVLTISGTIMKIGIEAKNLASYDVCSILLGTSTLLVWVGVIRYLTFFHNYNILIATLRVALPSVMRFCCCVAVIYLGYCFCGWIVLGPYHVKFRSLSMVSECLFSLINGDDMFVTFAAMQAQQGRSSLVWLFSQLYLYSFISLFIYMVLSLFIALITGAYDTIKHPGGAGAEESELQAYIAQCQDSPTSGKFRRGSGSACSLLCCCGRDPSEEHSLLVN
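Tet-induced TRPML1-DL cells, 1,500 per well, cultured overnight, were loaded with a no-wash Ca2+ dye for 45–90 min. Calcium fluorescence was recorded on the FDSS for 110 s after compound addition, before the EC80 agonist (4 uM 54-4) was added.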
CtBP-E1A inh: qHTS Assay for Inhibitors of the CtBP/E1A Interaction. AlphaScreen GST-E1A/His-CtBP binding, 1536-well; stronger effect = lower value; control for the full effect not named in the record. activity change, % (no concentration beside the values). 0.49% of 340,000 active. AID 651724, 2012; in the data active means activity change below about -65%; inconclusive means about -30% to -65%; inactive means above about -30%; further: on the % scale 0 is the no-effect control and ±100 the full control effect; compound concentration not given in the record
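In 5 uL wells, 23 nL compound meets equimolar GST-E1A and His-CtBP (5X stock 125 nM each) for 2 h, 37 °C. Beads (5X, 50 ug/mL) then 1 h, 37 °C, dark.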
* = called active by the depositor; ? = inconclusive; / = not tested or not shown; [ ] = another dose, or the depositor's remark.

SMILES	PINK1 expr mod	D2 potentiator	D2 ag	Six1-Eya2 blk	TRPML1 agonist	CtBP-E1A inh
CN1CCCN(C(=O)c2cc(-c3ccc(Cl)c(Cl)c3Cl)nc3ccccc23)CC1	-2.3%	-14	-3.1	1	0.5	/
COc1ccc2nc(NC(=O)CN(c3ccc(C)cc3)S(=O)(=O)c3c(C)nn(C)c3C)sc2c1	-1.3%	1	-0.5	-4	0.2	-6
COc1cc(C(C)=O)ccc1OCC(O)CN(CCO)Cc1ccccc1 (configuration not stated)	2.7%	-3	-3.3	0	-0.4	2
CCOC(=O)C(=CN(CCc1ccccc1)CC(=O)OC)C(=O)OCC	-1.0%	8	1.0	0	-0.8	0
N#Cc1ccc(-c2ccc(OCC3CNC(=O)O3)cc2)cc1 (configuration not stated)	-0.8%	10	1.5	0	-1.4	-3
CC(=O)NCCC(=O)Nc1cc(S(=O)(=O)N2CCCCC2)ccc1N1CCN(C)CC1	-0.3%	-11	-2.3	5	-0.4	-14
CCN1CCN(CCOc2cccc(Oc3ccccc3)c2)CC1	1.3%	-5	-6.5	-7	0.1	-9
Cc1nc(CC(=O)NNS(=O)(=O)c2ccc3ccccc3c2)cs1	-1.1%	-1	1.3	-9	0.1	?
Cc1cccc(C(O)c2ncc(-c3ccccc3F)[nH]2)c1C (configuration not stated)	0.6%	-6	-4.1	-8	-0.9	-4
CC(C)Oc1ccc(C(=O)N2CCCc3ccccc32)cc1	-4.0%	-11	-4.0	7	1.8	-6
O=C(OCC(=O)N1CCCCCC1)c1cccc(Cl)c1	0.3%	-1	-4.1	1	-0.5	/
O=C(NCc1cc2ccccc2[nH]1)C1CCC(=O)N(CCCN2CCCC2=O)C1 (configuration not stated)	-1.6%	-9	-1.4	-1	0.0	-5
CC1=C2C3OC(=O)C(C)C3CCC2(C)C=C(Br)C1=O (configuration not stated)	5.4%	-6	-11	3	-0.3	-5
COc1ccc(N2CCc3c(C)nc4c(OC)cc(OC)cc4c32)cc1	18%	-9	-2.9	2	1.9	3
Cc1cc(C)nc(NC(N)=NCCc2ccccc2)n1	5.6%	-19	-4.6	-12	1.3	-12
Cc1oc2c(O)c(O)ccc2c(=O)c1-c1ccccc1	-0.4%	17	?	0	-1.2	-19
CCOC(=O)N1CCN(C(=O)c2c(Cl)cnn2C)CC1	-0.2%	2	7.0	2	0.3	5
O=C1CCCCC1C1(O)C(=O)Nc2ccccc21 (configuration not stated)	2.2%	-7	-5.1	-7	-0.3	0
COc1ccc([N+](=O)[O-])cc1N(CC(=O)NCCCOC(C)C)S(C)(=O)=O	-1.9%	-1	6.0	1	-0.4	5
O=C(NCc1nc2ccccc2[nH]1)c1cccc(S(=O)(=O)N2CCOCC2)c1	4.2%[38.3 µM]	-9	-2.7	-4	-0.5	-8

Five neighbouring records from above, for reference:
SMILES	PINK1 expr mod	D2 potentiator	D2 ag	Six1-Eya2 blk	TRPML1 agonist	CtBP-E1A inh
CN1CCCN(C(=O)c2cc(-c3ccc(Cl)c(Cl)c3Cl)nc3ccccc23)CC1	-2.3%	-14	-3.1	1	0.5	/
COc1ccc2nc(NC(=O)CN(c3ccc(C)cc3)S(=O)(=O)c3c(C)nn(C)c3C)sc2c1	-1.3%	1	-0.5	-4	0.2	-6
COc1cc(C(C)=O)ccc1OCC(O)CN(CCO)Cc1ccccc1 (configuration not stated)	2.7%	-3	-3.3	0	-0.4	2
CCOC(=O)C(=CN(CCc1ccccc1)CC(=O)OC)C(=O)OCC	-1.0%	8	1.0	0	-0.8	0
N#Cc1ccc(-c2ccc(OCC3CNC(=O)O3)cc2)cc1 (configuration not stated)	-0.8%	10	1.5	0	-1.4	-3

Next section
SMILES	PINK1 expr mod	D2 potentiator	D2 ag	Six1-Eya2 blk	TRPML1 agonist	CtBP-E1A inh
CCn1c(SC)nc2cc(S(=O)(=O)N3CCCCC3)ccc21	1.2%	-1	6.0	-15	-0.1	-19
Cc1ccc(Cl)cc1NC(=O)COC(=O)CC(C)(C)C	0.0%	-30	-2.1	2	-0.3	11
CCOc1ccc2[nH]c3c(NCCN(CC)CC)ncnc3c2c1	1.7%	-1	0.5	-7	-1.6	-1
O=C(NC12CC3CC(CC(C3)C1)C2)N1CCN(c2nc(-c3ccccc3)cs2)CC1	2.2%	-15	-3.8	-4	0.5	-4
CCn1c(SCC(=O)NCc2ccco2)nnc1-c1cccs1	-0.6%[38.3 µM]	-5	3.1	-1	1.8	-4
CC(C)c1ccc2[nH]c(O)c(N=NC(=O)c3cccc(S(=O)(=O)Nc4ccccc4Cl)c3)c2c1	7.1%	-11	-4.7	?	3.8	-20
O=C1c2ccccc2C(=O)N1CC1c2ccccc2CCN1S(=O)(=O)c1ccccc1 (configuration not stated)	-0.2%	-12	-2.6	-4	15	-2
O=C(COc1ccc(S(=O)(=O)Nc2ccc(Cl)cc2)cc1)N1CCOCC1	-1.7%	3	2.1	5	12	-19
CC1CCCC=CC2CC(OC(=O)CN(C)C)CC2C(O)C=CC(=O)O1 (configuration not stated)	-2.0%	-13	-3.3	1	0.0	14
CC(=O)Oc1ccc(/C=C2/Oc3ccccc3C2=O)cc1	-0.3%	-3	-3.2	7	0.7	7
CCCCn1c(-c2ccc(OC)cc2)nc2c(=O)n(C)c(=O)[nH]c21	0.9%	-10	-3.3	-3	0.7	/
Cc1ccc(OCC(=O)OCC(=O)c2cccc([N+](=O)[O-])c2)cc1C	-1.0%	-28	-15	-17	1.7	1
CCc1nnc(NC(=O)CCC(=O)N2CCN(Cc3ccc(Cl)cc3)CC2)s1	-1.7%	-28	0.7	12	-0.4	1
COC(=O)COc1ccc(S(=O)(=O)N2CCOCC2)cc1	1.0%	-6	-3.5	0	0.0	0
CCOC(=O)C1=C(C)NC(=O)C1(NC(=O)c1cccnc1)C(F)(F)F (configuration not stated)	?	-6	-2.5	-7	0.9	-21
CC12CCCCC1(O)[N+](=O)C1=C(CCCC1)N2[O-] (configuration not stated)	1.4%	12	2.3	1	-0.3	11
O=C(COC(=O)c1nn(-c2ccccc2C(F)(F)F)cc1O)c1ccc(OC(F)F)cc1	11%	-67	-1.8	0	1.3	4
O=C(N/N=C/c1ccc([N+](=O)[O-])s1)C(O)c1ccccc1 (configuration not stated)	?	0	1.4	7	0.0	-7
CNC(=S)Nc1ccc2nc(C)oc2c1	2.9%	-1	-1.9	4	-0.6	1
CC1(C)CC(N2CCCC2)=CC(=[N+]2CCCCCC2)C1	?	-3	-6.0	9	0.7	2
CSc1cccc(NS(=O)(=O)c2ccc3c(c2)CCN3C(C)=O)c1	6.7%	-4	-1.3	13	0.5	7
CC(=O)Oc1ccc2c(c1)Oc1cc(OC(C)=O)ccc1C21OC(=O)c2ccccc21	0.1%	?	7.0	-82*	113*	-28
CCCCC[C@@H]1[C@@H]2C(=C(OCC)C[C@@H]3C(=O)N(c4ccccc4)C(=O)[C@H]23)[C@H](c2ccccc2)N1S(=O)(=O)c1ccc(C)cc1	10%	-6	-4.0	8	0.9	-16
COC(CN(C)C(=O)C1CCC(CNS(=O)(=O)c2ccc(C)cc2)CC1)OC (configuration not stated)	0.6%	0	-1.3	3	2.1	/
CCN(Cc1cc2ccccc2[nH]c1=O)S(=O)(=O)c1ccccc1	-1.0%	-2	-0.7	20	2.0	0
O=C(CCCn1c(SCC(=O)c2ccc(F)cc2)nc2ccccc2c1=O)NCc1ccccc1	/	-41	-1.5	3	1.1	2
O=C(CCc1c[nH]c2ccccc12)NCc1ccncc1	1.3%	-5	-5.0	-1	0.2	-2
COc1cc(CC(=O)Nc2nc(C)cs2)cc(OC)c1OC	1.6%	-4	7.7	0	-0.4	4
COCCCN1C(=O)c2ccc(C(=O)Nc3ccc(OC)cc3OC)cc2C1=O	1.7%	6	1.6	-3	-1.0	4
COc1ccc(CNC(=O)COC(=O)c2ccc(C)c(S(=O)(=O)N3CCOCC3)c2)cc1	1.0%	3	-1.6	-4	-1.9	/
CCOC(=O)c1cnn(-c2nc(-c3ccccc3)nc3c2COC(C)(C)C3)c1N	1.9%	-8	-1.3	2	-0.4	8
CCCCSC(=S)NC1CCS(=O)(=O)C1 (configuration not stated)	-2.7%	-14	-2.1	9	-0.5	2
O=C(N1CCCCC1)N1CCN(c2ccc(Cl)cc2)CC1	0.1%	4	-3.5	-5	-0.3	-6
Cc1ccc(N2C(=O)NC(NC(=O)c3ccc(Cl)cc3)(C(F)(F)F)C2=O)cc1 (configuration not stated)	2.1%	-7	-4.8	4	-0.4	5
C=CCNc1nc(C(=O)OCC(=O)c2ccc(Cl)cc2)cs1	-0.3%	-5	-3.9	-21	0.5	-25
O=C(Nc1ccncc1)C1CC(=O)N(c2ccc(F)cc2)C1 (configuration not stated)	-1.1%	-2	1.6	-1	-0.4	4
CN1CC(=O)N(CC(=O)Nc2ccc3c(c2)CCC3)C1=O	3.5%	-4	-5.4	2	0.6	5
CCn1cc(C(=O)N2CCN(c3ccccc3F)CC2)c(=O)c2ccc(C)nc21	0.7%	-5	-5.5	3	-0.8	4
COc1ccc(/C=C(\NC(=O)c2ccccc2)C(=O)NCCN2CCOCC2)cc1OC	12%	-3	-5.4	7	0.5	3
COc1ccc(OC)c(-n2c(=S)[nH]c3c(sc(=S)n3-c3ccccc3C)c2=O)c1	0.2%	4	-7.2	2	0.0	0
COc1ccccc1OCc1ccc(C(=O)OCC2CCCO2)o1 (configuration not stated)	0.7%	-8	0.5	?	-0.1	-3
CC(C)C[C@H]1CN(CCCC[C@@H]2CNC(=O)C(=O)N2CCc2ccccc2)C(=O)C(=O)N1CCC1CCCCC1	1.1%	/	/	0	-0.3	-11
O=C(Nc1ccccc1)[C@@H]1[C@@H]2C(=O)N(c3ccc(F)cc3)C(=O)[C@@H]2[C@H]2C=CC=NN21	-0.9%	-3	-1.8	-2	-0.2	-1
Cc1nc(NC(=O)c2ccccc2)sc1-c1csc(NCc2ccco2)n1	2.7%[38.3 µM]	-12	-1.0	-12	-0.4	-5
Cc1[nH]ccc(=O)c1OC1OC(CO)C(O)C(O)C1O (configuration not stated)	-0.4%	-6	0.7	8	-0.4	11
CCOc1cc(N2CCOCC2)c(OCC)cc1NC(=O)COC(=O)CCOc1cc(C)ccc1C	-1.0%	-6	-4.4	-13	-0.5	2
CCOc1ccc(-n2c(N)c(-c3nc4ccccc4n3C)c3nc4ccccc4nc32)cc1	-3.1%	-23	-1.4	7	-0.1	1
COc1cc(C(=O)c2nccc3cc(OC)c(OC)cc23)c([N+](=O)[O-])cc1OC	3.0%	18	?	-15	1.2	-2
